# T cruzi repl = T. cruzi replication inhibition | T. cruzi beta-gal in NIH3T3, luminescence, 90 h | inhibition, % (test concentration not listed) | 300,000 tested, 1.4% active;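 active = mean inhibition across valid replicates above about 55%, limit read from the data; inconclusive = mean below that limit but half or more replicates reach it; inactive = mean below it, under half of replicates reach it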;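 note: signal also drops with host cell toxicity which is not excluded here; 0% = plate median of DMSO wells and 100% = zero luminescence signal; higher percent means less beta-gal luminescence so fewer parasites; stock transfer was 50 nL into about 50 µL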
# Beta apoptosis = blocks beta cell apoptosis; INS-1E cytokine-induced death, ATP luminescence, 48 h; percent of positive-control rescue, neutral wells zero; AID 435005; protection from apoptosis, % (test concentration not listed); 300,000 tested, 0.8% active;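 active = all replicates at 75% or more, or half of them and the mean; inconclusive = half reach 75% but not the mean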;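 note: 0% = cytokine-treated negative control wells and 100% = positive control rescue; higher means more ATP so stronger rescue from cytokine killing; wells of about 40 µL received 100 nL stock; the first replicate is given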
# LANA-H2B inh = blocks KSHV LANA binding to histone H2A/H2B | cell-free LANA-H2A/H2B peptide, fluorescence polarization | Q9QR71 | inhibition, % (test concentration not listed) | 320,000 tested, 0.6% active; in the data active = inhibition mostly above about 10%, no sharp cut-off; inactive = mostly below about 6.7%;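 note: stock transfer was 7.5 nL into about 10 µL; 0% = median of vehicle wells and 100% = median of positive control wells; one replicate is shown; the record names a cut of 25% in any replicate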
# UCH37 DUB inh = human UCH37 deubiquitinating enzyme inhibition; purified proteasome/UCH37, Ub-AMC cleavage fluorescence; 330,000 tested, 0.33% active; inhibition, % (concentration not given with the values); Q9Y5K5;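 active = mean of two replicates above 20%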;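 note: 0% = compound-free wells with enzyme and 100% = wells lacking proteasome; stock transfer was 100 nL into about 20 µL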
# Target sequence (Q9Y5K5 whole entry, looked up): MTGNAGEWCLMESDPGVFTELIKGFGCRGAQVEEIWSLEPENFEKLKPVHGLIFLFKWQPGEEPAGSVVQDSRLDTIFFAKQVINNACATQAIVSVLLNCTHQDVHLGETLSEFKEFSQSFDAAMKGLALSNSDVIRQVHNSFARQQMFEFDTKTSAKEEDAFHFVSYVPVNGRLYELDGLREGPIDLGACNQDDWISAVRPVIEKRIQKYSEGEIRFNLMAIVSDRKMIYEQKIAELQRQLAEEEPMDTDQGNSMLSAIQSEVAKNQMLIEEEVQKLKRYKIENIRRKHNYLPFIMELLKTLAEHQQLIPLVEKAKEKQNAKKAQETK
#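 Reagent: Ub-AMC substrate; assay system: Proteasome-associated human UCH37 deubiquitinase; controls: no-proteasome and no-compound wells; read-out: % inhibition of Ub-AMC cleavage fluorescence; timing: 30 min preincubation with enzyme, 25 min cleavage at room temperature; signal: AMC fluorescence from Ub-AMC cleavage, excitation 355 nm, emission 460 nm; buffer or medium: Tris-HCl pH 7.4 plus ovalbumin, ATP-MgCl2, DTT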
# Calb FLC = C. albicans growth modulation with fluconazole; growth inhibition, % (no concentration beside the values); 300,000 tested, 0.57% active; C. albicans CaCi-2 (fluconazole-resistant clinical isolate) + fluconazole, Alamar Blue growth, 48 h;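 active = most replicates above 75%; inconclusive = exactly half above 75%; inactive = most below 75%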;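 note: all wells also contain fluconazole at 8 µg/ml as a sub-toxic cotreatment; 0% = median of DMSO wells and 100% = median of geldanamycin control wells; wells of about 8 µL received 7.5 nL stock; the first replicate is given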
# RanGTP-Imp inh = inhibitors of RanGTP-importin-beta interaction, primary screen, biochemical, FRET, CFP-Ran, YFP-importin-beta, homogeneous | 300,000 tested, 1.1% active | inhibition, % (concentration not given with the values) | cell-free CFP-Ran/YFP-importin-beta FRET ratio;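 active = most replicates above 15%; inconclusive = exactly half above 15%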;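 note: 0% = DMSO wells and 100% = Ran loaded with GDP instead of GTP; wells of about 40 µL received 100 nL stock; the first replicate is given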
# B2AR ag = activates human beta-2 adrenergic receptor causing internalization | P07550 | AID 504454 | Am2.2-beta2AR cells, FAP receptor internalization, flow cytometry; reference of the scale not given here | 340,000 tested, 0.43% active | response, % (test concentration not listed);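 active = response above a set limit, near 3 SD of response in nonfluorescent compounds, cut at about 42% in these data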;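 note: stock transfer was 100 nL into about 11 µL; a reference agonist was the positive control; negative values mostly stem from fluorescent compounds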
# Target sequence (P07550 whole entry, looked up): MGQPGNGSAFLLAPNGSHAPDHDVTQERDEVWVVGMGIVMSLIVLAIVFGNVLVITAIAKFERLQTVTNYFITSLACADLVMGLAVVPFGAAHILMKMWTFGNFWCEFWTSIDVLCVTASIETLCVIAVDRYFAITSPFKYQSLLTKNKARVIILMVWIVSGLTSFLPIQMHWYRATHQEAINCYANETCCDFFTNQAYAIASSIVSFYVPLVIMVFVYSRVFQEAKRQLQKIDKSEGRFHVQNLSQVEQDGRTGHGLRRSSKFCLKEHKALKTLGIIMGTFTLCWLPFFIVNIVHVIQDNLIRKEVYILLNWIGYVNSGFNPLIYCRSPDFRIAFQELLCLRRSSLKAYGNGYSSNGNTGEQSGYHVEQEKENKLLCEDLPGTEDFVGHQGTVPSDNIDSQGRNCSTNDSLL
# A1 inh = inhibitors of the anti-apoptotic protein A1, read as caspase activation | MEF A1-2A-BIM cells, Caspase-Glo 3/7 luminescence, 3 h; percent of clofoctol response, vehicle zero | caspase activation, % (no concentration beside the values) | 330,000 tested, 0.066% active | AID 2462;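 active = over half of replicate activation scores above 10%, or exactly half above 10 with the replicate mean above 10; inconclusive = replicate mean below 10 yet half the replicates above 10; inactive = over half of replicates below 10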;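 note: wells of about 30 µL received 50 nL stock; many hits fall short of the cut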
# The depositor's hits bear a star; ? = inconclusive; . = not tested or not shown.
1	O=C(N/N=C/c1cccc(O)c1)C(=O)N1CCCCCC1
2	CCOC(=O)c1cc(C)nc(SC)c1C#N
3	Cc1cc(O)ccc1Nc1nc(-c2cccs2)cs1
4	COc1ccc(-c2nnc(-c3ccc(F)cc3)o2)cc1
5	C=CCNc1ccc(N2C(=O)CCCC2=O)cc1[N+](=O)[O-]
6	Cc1cnc(CN(C)C(=O)CC2C(=O)NCCN2CCCc2ccccc2)[nH]1 (stereo not given)
7	CCOC(=O)c1ccccc1NC(=O)CSc1nc2ccccc2o1
8	COc1cc(C)c(NC(=O)C(=S)NCc2ccccc2)cc1C

screen / no.	1	2	3	4	5	6	7	8
T cruzi repl	-15	-4	-58	-17	2	-7	1	3
Beta apoptosis	-4	9	-3	0	-7	-3	0	2
LANA-H2B inh	3.4	-0.1	4.5	1.8	3.2	1.9	1.0	-1.6
UCH37 DUB inh	.	0.7	2.0	-9.3	8.0	0.0	0.8	1.5
Calb FLC	-7	-7	-10	-5	1	-10	33	-7
RanGTP-Imp inh	3.4	-2.8	0.1	-3.2	-3.2	6.2	-0.5	-0.6
B2AR ag	4	5	2	-1	4	1	9	-1
A1 inh	1.0	-0.7	0.2	-4.8	-0.1	0.6	0.5	1.0

9	COc1ccc(C(O)(CCC(C)C)C(CN2CCOCC2)c2ccccc2)cc1 (stereo not given)
10	COCCCN(C(=S)Nc1cc(C)cc(C)c1)C(C)c1ccncc1 (stereo not given)
11	COc1cc(OC)nc(NC(=O)CSc2nc3ccccc3[nH]2)n1
12	NS(=O)(=O)c1ccc(N=Nc2c[nH]c(=O)c(O)c2)cc1
13	Cc1ccc(S(=O)(=O)NCc2ccccc2)cc1C(=O)N1CCN(c2ccccc2)CC1
14	Cc1ccc(NC(=O)C2C3C=CC(O3)C2C(=O)O)c(C)c1 (stereo not given)
15	NC(=O)N/N=C/c1ccccc1OC(=O)c1ccccc1Br
16	CCCc1nc(SCC(=O)NC2CCCC2)c2ccccc2n1

screen / no.	9	10	11	12	13	14	15	16
T cruzi repl	-8	-13	-7	-7	.	5	-13	10
Beta apoptosis	2	-3	-1	6	1	-8	-11	1
LANA-H2B inh	3.7	-7.5	0.2	1.8	1.8	-4.9	-6.5	-5.1
UCH37 DUB inh	3.2	4.2	1.6	33*	2.6	.	.	6.9
Calb FLC	-3	-7	-7	.	.	-9	31	-14
RanGTP-Imp inh	0.0	-2.3	1.3	28*	.	-2.3	2.8	-0.5
B2AR ag	-1	4	-7	-2	0	-4	1	-14
A1 inh	0.0	0.6	0.9	0.2	-0.4	-0.6	1.1	1.9

# Fetched by structure from above, three records:
7	CCOC(=O)c1ccccc1NC(=O)CSc1nc2ccccc2o1
15	NC(=O)N/N=C/c1ccccc1OC(=O)c1ccccc1Br
2	CCOC(=O)c1cc(C)nc(SC)c1C#N

screen / no.	7	15	2
T cruzi repl	1	-13	-4
Beta apoptosis	0	-11	9
LANA-H2B inh	1.0	-6.5	-0.1
UCH37 DUB inh	0.8	.	0.7
Calb FLC	33	31	-7
RanGTP-Imp inh	-0.5	2.8	-2.8
B2AR ag	9	1	5
A1 inh	0.5	1.1	-0.7

# (next part)
17	Cc1cc(S(=O)(=O)N2CCCCC2)ccc1OCC(=O)Nc1ccccc1
18	Cc1ccc(C(=O)NCCC2=CCCCC2)cc1S(=O)(=O)N1CCOCC1
19	CC1(C)CCC(=O)N2CC[C@H]3C[C@H](OC(=O)Nc4ccc(Br)cc4)C[C@@H]1[C@H]32
20	O=C(Nc1cc(Sc2nc3ccccc3s2)cc([N+](=O)[O-])c1)c1ccccc1
21	O=C(CCc1ccccc1)Nc1ccc2c(c1)OCCO2
22	C=CCn1c(SCC(=O)NC2CC2)nnc1C1CC1
23	CC(=O)Nc1ccc(NC(=O)c2c(C)c(-c3ccccc3)nc3ccccc23)cc1
24	CCOc1cccc2cc(C(=O)NCc3ccccc3Cl)c(=O)oc12

screen / no.	17	18	19	20	21	22	23	24
T cruzi repl	-7	5	-5	56*	5	-7	10	2
Beta apoptosis	1	.	4	13	-4	-3	-10	13
LANA-H2B inh	-7.3	2.8	4.6	-3.2	2.2	-3.0	4.3	-1.3
UCH37 DUB inh	0.7	14	.	4.5	5.7	-2.8	5.8	-17
Calb FLC	-13	6	8	10	15	.	14	-3
RanGTP-Imp inh	-0.8	0.2	-4.2	0.1	2.5	.	-2.7	3.3
B2AR ag	10	-4	-2	-1	-3	-8	3	-4
A1 inh	-0.9	0.5	0.6	0.3	0.0	-0.6	0.0	0.5

# Entries listed so far marked active in UCH37 DUB inh:
cpd	SMILES	LANA-H2B inh	UCH37 DUB inh	RanGTP-Imp inh	B2AR ag
12	NS(=O)(=O)c1ccc(N=Nc2c[nH]c(=O)c(O)c2)cc1	1.8	33*	28*	-2

# (listing goes on)
25	CSC(=Nc1ccc(Cl)cc1)N[n+]1ccccc1
26	NS(=O)(=O)c1ccc(NC(=S)NCc2ccc(Cl)cc2)cc1
27	CCOCC(=O)Nc1nnc(C)s1
28	O=C(CN1C(=O)NC2(CCCC2)C1=O)N1CCN(S(=O)(=O)c2ccc(Cl)c(C(F)(F)F)c2)CC1
29	COc1ccccc1NC(=O)C(=O)N/N=C(\C)CC(=O)Nc1ccccc1C(F)(F)F
30	Cc1ccc(NC(=O)CN2CCN(Cc3ccccc3)CC2)c(Br)c1
31	O=C1CC(SCCc2nc3ccccc3[nH]2)C(=O)N1c1ccc(F)cc1 (stereo not given)
32	CCc1cccc(NC(=O)C2CCCN(c3cnccn3)C2)c1 (stereo not given)

screen / no.	25	26	27	28	29	30	31	32
T cruzi repl	-6	7	-26	-3	-2	21	-13	23
Beta apoptosis	-4	-9	-1	1	-6	.	-10	.
LANA-H2B inh	-1.9	-1.7	2.0	-1.1	1.1	-3.3	1.9	.
UCH37 DUB inh	1.2	1.8	-0.3	2.9	.	5.3	1.2	-20
Calb FLC	-15	-3	26	9	21	-11	-3	-11
RanGTP-Imp inh	3.9	1.7	2.3	-4.4	-1.5	1.9	6.8	0.7
B2AR ag	7	2	-1	-12	0	-4	-2	7
A1 inh	-0.7	-1.1	0.0	1.3	-0.5	1.0	0.3	.

33	COC(=O)c1cc(NC(=O)COC(=O)CCc2nc3ccccc3c(=O)[nH]2)cc(C(=O)OC)c1
34	COc1ccc(NC(=O)CC23CC4CC(C2)CC(n2nnc(C)n2)(C4)C3)cc1
35	CN1CCNC(=O)C1CC(=O)NCCC1=CCCCC1 (stereo not given)
36	Cc1ccc(NC(=O)CSc2nc3ccccc3c(=O)n2CCCC(=O)NCCCN2CCOCC2)cc1C
37	O=C(NC1CCCC1)c1ccc(CSCc2ccccc2F)o1
38	CC(C)CCn1nnnc1CN1CCN(c2ccccc2)CC1
39	CC(NC(=O)CS(=O)(=O)c1ccccc1)c1ccccc1 (stereo not given)
40	CCCS(=O)(=O)N1CCCC(C(=O)NCc2cccnc2)C1 (stereo not given)

screen / no.	33	34	35	36	37	38	39	40
T cruzi repl	.	-11	-15	9	21	-4	-14	0
Beta apoptosis	2	-3	-9	22	3	-2	-6	-2
LANA-H2B inh	-4.8	-0.8	-1.1	3.9	-4.1	-2.1	1.8	-1.1
UCH37 DUB inh	1.1	4.8	-2.9	4.0	1.8	0.9	5.9	-4.4
Calb FLC	.	-4	-10	3	1	4	-4	3
RanGTP-Imp inh	.	1.6	-0.4	3.7	-0.7	-2.7	1.4	?
B2AR ag	34	-10	8	0	4	-9	0	-10
A1 inh	-0.6	1.2	0.4	0.4	0.9	0.3	-0.5	0.1

41	Cc1ccccc1C(=O)Nc1nnc(S(=O)(=O)N(C)Cc2ccco2)s1
42	N/C(=N\OC(=O)c1ccccc1Cl)c1ccncc1
43	Cc1ccc(NC(=S)N2CCCC(c3ccccc3)=N2)cc1
44	Cc1cccc(C)c1OCc1cc(C(=O)N2CCC(C3CCCCC3)C2)no1 (stereo not given)
45	O=C(/C=C/c1ccc(OCCCF)cc1)Nc1ccnc(-c2cccnc2)n1
46	COc1cc(C2C(C#N)=C(N)Oc3cc(O)ccc32)cc2c1OCO2 (stereo not given)
47	Cc1ccc(NC(=O)CNc2cccc(Br)c2)cc1S(=O)(=O)N1CCOCC1
48	Nc1nc(Cl)c(C=O)c(N2CCCCC2)n1

screen / no.	41	42	43	44	45	46	47	48
T cruzi repl	-4	3	12	34	48	-2	.	0
Beta apoptosis	6	-3	-11	-2	11	-2	6	0
LANA-H2B inh	2.7	-1.7	1.4	6.0	-7.6	1.9	0.3	3.7
UCH37 DUB inh	-0.7	-1.4	1.8	0.2	-28	0.3	-0.3	5.0
Calb FLC	19	-38	-4	6	-17	1	.	0
RanGTP-Imp inh	-0.8	2.8	0.1	4.4	1.3	42*	.	0.0
B2AR ag	9	4	-6	-6	2	7	-4	3
A1 inh	-3.0	-5.1	0.5	-0.8	0.4	0.3	-0.6	-0.4

49	COc1ccc2nc(COC(=O)c3cccc([N+](=O)[O-])c3)c(C(C)=O)[n+]([O-])c2c1
50	CCCn1cc(S(=O)(=O)CC(=O)Nc2ccc(OC)cc2OC)c2ccccc21
51	O=C(c1ccco1)N1CCN(c2ncccn2)CC1
52	CCC(C)(C)NC(=O)C(c1ccccc1)N(Cc1cccnc1)C(=O)c1csnn1 (stereo not given)
53	Cn1cc(CC(=O)NCCCN2CCCC2=O)c2ccccc21
54	COCCNC(=O)c1ccc2c(c1)nc(C)n2-c1cccc(F)c1
55	CN1CCN(CCC(=O)N/N=C/c2cc([N+](=O)[O-])ccc2O)CC1
56	O=C(NCc1ccc2c(c1)OCO2)c1ccc(S(=O)(=O)C(F)F)cc1
57	O=C(Nc1ccc(F)cc1Cl)C1=COCCO1
58	CCOc1ccc(C2/C(=C(\O)c3ccc(OC)c(OC)c3)C(=O)C(=O)N2c2cc(C)on2)cc1OC (stereo not given)
59	CCOCCN1CCN(C(=O)CN2CCCC2=O)CC1

screen / no.	49	50	51	52	53	54	55	56	57	58	59
T cruzi repl	-24	2	-11	-9	-7	7	2	7	-3	-24	-21
Beta apoptosis	6	-3	-6	-4	.	2	2	2	-2	-10	-2
LANA-H2B inh	2.3	-6.4	-2.4	-1.4	-3.8	0.7	0.5	1.9	2.7	-4.6	-2.7
UCH37 DUB inh	0.4	0.8	-0.2	0.2	5.1	-0.5	.	-2.7	0.3	3.7	1.1
Calb FLC	0	1	2	1	-3	3	16	2	-3	-1	-2
RanGTP-Imp inh	0.7	1.2	-4.5	-4.5	?	-0.3	-3.4	-5.6	1.4	2.1	1.2
B2AR ag	3	-11	-8	1	7	3	-2	3	-6	1	9
A1 inh	0.7	-1.0	0.5	0.4	0.7	0.8	0.7	-0.2	0.3	0.6	-0.4
